# TDP1 cell CPT: qHTS for Inhibitors of human tyrosyl-DNA phosphodiesterase 1 (TDP1): qHTS in cells in presence of CPT | Potency, µM (titrated, usually from 46.2 µM), without a hit: at the top dose activity change, negative = growth inhibition, usual class: inhibitors | chicken DT40 Tdp1-/-;hTDP1 cells + 20 nM CPT, ATP luminescence, 48 h | actives 12% (n = 420,000); further: nearly all actives have a fitted effect of over 55% in size
#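 Chicken DT40 Tdp1-/- cells complemented with human TDP1, 400 cells/well, exposed to compounds plus 20 nM camptothecin for at least 48 h at 37 C; viability read as ATP content by CellTiter-Glo luminescence.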
# GCN5L2 inh: qHTS Assay for Inhibitors of GCN5L2. Histone acetyltransferase KAT2A (Homo sapiens), Q92830. GCN5L2 HAT assay, ThioGlo1 CoA-SH fluorescence. Potency, µM (titrated, usually from 58.9 µM), inactives show at the highest dose activity change, negative = inhibition, most hits filed as inhibitors. actives 0.21% (n = 390,000). AID 504327, 2011
# Target sequence (Q92830 whole entry, looked up): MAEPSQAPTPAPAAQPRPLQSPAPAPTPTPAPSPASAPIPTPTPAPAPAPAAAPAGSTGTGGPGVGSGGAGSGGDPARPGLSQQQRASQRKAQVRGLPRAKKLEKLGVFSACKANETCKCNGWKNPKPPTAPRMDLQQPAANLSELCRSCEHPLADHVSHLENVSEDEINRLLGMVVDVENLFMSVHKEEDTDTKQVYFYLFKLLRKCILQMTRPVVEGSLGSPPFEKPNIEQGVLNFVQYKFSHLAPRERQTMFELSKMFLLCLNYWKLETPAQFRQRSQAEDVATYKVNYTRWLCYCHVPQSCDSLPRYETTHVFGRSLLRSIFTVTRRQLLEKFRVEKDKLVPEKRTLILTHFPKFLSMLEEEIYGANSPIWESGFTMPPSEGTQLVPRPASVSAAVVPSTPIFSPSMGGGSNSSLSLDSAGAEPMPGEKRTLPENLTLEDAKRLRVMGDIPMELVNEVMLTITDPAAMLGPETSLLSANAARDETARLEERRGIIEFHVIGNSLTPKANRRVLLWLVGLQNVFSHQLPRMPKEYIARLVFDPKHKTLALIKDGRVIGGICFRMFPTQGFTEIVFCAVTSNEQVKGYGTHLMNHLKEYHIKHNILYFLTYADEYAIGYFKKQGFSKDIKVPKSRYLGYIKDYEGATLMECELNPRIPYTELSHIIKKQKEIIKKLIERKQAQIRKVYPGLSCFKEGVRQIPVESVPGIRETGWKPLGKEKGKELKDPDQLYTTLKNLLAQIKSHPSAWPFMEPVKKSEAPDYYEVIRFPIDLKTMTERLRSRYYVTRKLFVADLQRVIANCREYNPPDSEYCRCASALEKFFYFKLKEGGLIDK
#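 Fluorescence readout, Ex340nm/Em540nm: ThioGlo1 (50uM final) reacts with free CoA thiol released as 20nM GCN5L2 acetylates H3(1-25) peptide (75uM) using acetyl-CoA (70uM). Compound and enzyme sat 15 min beforehand; 20 min room-temperature reaction.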
# * hit, by the source's call; ? = inconclusive; nt = not tested or not shown. The call rests on the fitted dose curve; in most records, active means well fitted curve in the direction sought with a large enough effect; inconclusive means small, poorly fitted or top-dose-only effect, or another doubt; inactive means no such curve, though single readings can be large; an effect the other way counts as inactive or inconclusive. On the % scale 0 is the no-effect control and ±100 the full control effect; potency means the concentration at half of the fitted maximal effect. These rows are one share of the data, and most or all hits are left out here.
canonical_smiles	TDP1 cell CPT	GCN5L2 inh
COc1ccc(Cl)cc1NC(=O)CSc1nc(-c2ccccc2)cc(=O)[nH]1	-23.9%	-0.9%
Cc1cccc2c(-c3ccccc3)cc(=O)[nH]c12	?	-0.6%
COc1ccc(NC(=O)C(OC(=O)c2cnc(C)cn2)c2ccccc2)cc1Cl (stereo unspecified)	?	3.8%
Cc1[nH]c2ccccc2c1C(=O)C(=O)N(C)C1CCCCC1	-9.0%	-4.4%
CCN(CC)c1ccc(C=Nc2ccccc2C)c(O)c1	0.1%	-9.1%
O=C1OC(/C=C/c2ccccc2)=NC/1=C/C=C/c1ccccc1	0.4%	-9.3%
Cc1cc(NCc2ccccc2)nc(-c2ccccc2O)n1	?	-17.0%
CC(C)(C)c1nnc2sc(SCC(=O)c3ccc4c(c3)OCCO4)nn2c1=O	?	-6.3%
Cc1cccnc1NC(=O)C(C)Oc1ccccc1 (stereo unspecified)	6.4%	?
Cc1ccc2nc(NC(=O)COC(=O)c3ccco3)sc2c1	1.5%	nt
O=C(c1cccs1)N(c1ccc(Cl)cc1)C1C=CS(=O)(=O)C1 (stereo unspecified)	16.1%	-0.9%
COc1cccc(C(=O)COc2ccccc2-c2ccccc2)c1	7.7%	-8.9%
O=C(NCc1ccco1)c1ccc(NS(=O)(=O)c2cccc(F)c2)cc1	-10.7%	-7.4%
O=C(CCl)Oc1ccc2occ(C(=O)c3cccs3)c2c1	-28.1%	0.0%
COC(=O)c1cc(S(=O)(=O)NCCc2ccccc2)c[nH]1	7.6%	1.8%
COc1cc(N2CCOCC2)ncn1	-16.2%	-7.3%
COc1ccc(C2(c3ccc(OC)cc3)NC(=O)N(CC(=O)NCC(C)c3ccccc3)C2=O)cc1 (stereo unspecified)	-4.0%	-3.8%
CC(C)=CC(=O)Nc1nnc(-c2cccnc2)s1	1.0%	-6.1%
COc1ccc(C2CC(c3ccccc3)=NN2C(=O)COC(=O)COc2ccccc2)cc1 (stereo unspecified)	19.3%	-2.3%
O=C(Nc1cccc(O)c1)c1noc2c1CCCCC2	-26.1%	-10.6%
CCCOc1c(Cl)cc(C(=O)N(Cc2cccc(OC)c2)C2CCS(=O)(=O)C2)cc1Cl (stereo unspecified)	?	-9.8%
CN(C(=O)COC(=O)Cc1ccccc1[N+](=O)[O-])C1CCS(=O)(=O)C1 (stereo unspecified)	4.8%	-0.2%
COC(=O)COn1c(-n2nc(C)cc2C)nc2ccccc2c1=O	?	-2.5%
CN(CC(=O)Nc1ccccc1Br)C(=O)COc1cccc2c1OC(C)(C)C2	0.8%	-1.1%
COC(=O)c1sc(S(=O)(=O)NCCCN(C)C)c(C(=O)OC)c1C	-20.3%	-0.3%
CCC1CN(C)C2Cc3c([nH]c4ccccc34)C(=O)CC1C2C(=O)OC (stereo unspecified)	23.1µM*	?
CCOC(=O)c1ccc(NC(=O)CSc2nc(=O)n3cccc(C)c3n2)cc1	20.6µM*	-2.9%
CCC(=O)Nc1ccc(C(=O)NNC(=O)c2cccs2)cc1	2.7%	-0.6%
CC[C@H](C)[C@H](NC(=O)OCc1ccccc1)C(=O)Nc1ccc(NC(C)=O)cc1	-19.1%	-6.8%
CCOC(=O)N1CCN(C(=O)c2ccccc2N(Cc2ccccc2)S(=O)(=O)c2ccc(OC)cc2)CC1	2.91µM*	-25.2%
CCOc1ccccc1N1CCN(C(=O)c2c(-c3ccccc3Cl)noc2C)CC1	2.8%	-4.4%
CCc1cccc(NC(=O)C2CCCC2)c1	4.4%	-6.4%
CCNS(=O)(=O)c1cc(S(C)(=O)=O)ccc1Cl	-14.9%	0.5%
Cc1cc(Br)c2[nH]cc(CCNC(=O)c3ccco3)c2c1	-23.2%	-12.7%
COc1ccc(-c2c(C)nn3c(N)c(-c4ccccc4)cnc23)cc1OC	5.8µM*	-5.8%
CC(C)c1onc(C(=O)NCCc2ccccc2)c1[N+](=O)[O-]	20.6µM*	-3.5%
Nc1c(NC(=O)CC[n+]2ccccc2)cccc1[N+](=O)[O-]	7.1%	-1.6%
CCOc1ccc(Cl)cc1CNCCCSc1nc(C)cc(C)n1	?	-11.2%
COc1ccccc1N1CCN(C(=O)c2cccc(N3C(=O)C4C5C=CC(C5)C4C3=O)c2)CC1 (stereo unspecified)	?	-1.5%
Cc1cc(SCC(=O)N2CCCC2)nc2ccccc12	3.1%	-17.9%
O=C1c2ccccc2C(=O)N1CCSc1nnc(-c2ccco2)n1Cc1ccccc1	-26.3%	-1.2%
COc1cccc(CNC(=O)CCS(=O)(=O)c2ccccc2Cl)c1	13.6%	-0.2%
COc1cc(NC(=S)N(C)CCC#N)c(OC)cc1Cl	16.9%	-20.3%
CCOC(=O)c1c(C)[nH]c(C(=O)C(C)OC(=O)c2cccc(OCc3c(C)noc3C)c2)c1C (stereo unspecified)	20.6µM*	-17.0%
Nc1c(Cl)ncnc1N1CCCC1	8.7%	1.7%
O=C(CN1C(=O)NC2(CCCC2)C1=O)NCCN1C(=O)S/C(=C\c2ccccc2F)C1=O	?	-8.5%
CCn1c(SCc2cccc(Br)c2)nnc1-c1nonc1NC(C)=O	18.4µM*	-6.1%
COc1ccccc1C(=O)N/C(=C/c1ccc(Br)cc1)C(=O)NCCO	-21.2%	-8.6%
CN(C)CCNC(=O)C(=O)Nc1ccc2c(c1)N(S(=O)(=O)c1cccs1)CCC2	16.4µM*	-4.9%
CC1(C)CC(=O)c2sc(N)nc2C1	5.3%	-2.7%
COc1ccc(CNC(=O)c2cccc3c2C(=O)N(Cc2cccnc2)C3)cc1	?	0.9%
Cc1ccc(S(=O)(=O)NCCN=Cc2ccc(N(C)C)cc2)cc1	3.9%	-27.3%
COCCCNC(=O)C1CC(=O)N(c2ccc(C)cc2)C1 (stereo unspecified)	-18.4%	-1.7%
O=C(CSc1cc([N+](=O)[O-])cc(S(=O)(=O)Cc2ccccc2)c1)NC1CC1	-17.7%	-1.9%
C=C(C)C(=O)Oc1ccc(N2C(=O)CCC2=O)cc1	?	-3.4%
COc1cc(C2c3c(oc4ccc(C)cc4c3=O)C(=O)N2Cc2ccc(F)cc2)ccc1O (stereo unspecified)	5.4%	0.2%
COc1ccc(CCNC(=O)c2cc(-c3ccccc3OC)on2)cc1OC	?	1.7%
CC(=O)N1CCN(S(=O)(=O)c2ccc3c(c2)CC(=O)N3)CC1	-0.7%	-5.3%
O=C(Nc1nnc(COc2ccc(Br)cc2)s1)c1ccco1	15.1%	0.0%
C/C(=N\NC(=O)C1CC1)c1ccc2c(c1)OCCO2	-0.8%	-1.1%

# Later entries:
canonical_smiles	TDP1 cell CPT	GCN5L2 inh
Cc1cccc2nc3ccccc3nc12	24.2%	-4.4%
COc1ccc(CC(=O)OCC(=O)Nc2ccc3[nH]c(=O)[nH]c3c2)cc1	-2.8%	-1.7%
CC(C)C(=O)N1CCN(c2ccccc2NC(=O)Cc2ccc(Cl)cc2)CC1	?	-6.2%
Cc1nc(CNS(=O)(=O)c2cc([N+](=O)[O-])ccc2C)cs1	1.4%	-2.6%
CN1CCN(CC(=O)N2c3ccccc3Sc3ccccc32)CC1	0.0%	-12.4%
O=C(Nc1cc(S(=O)(=O)N2CCOCC2)ccc1N1CCOCC1)c1cc(=O)[nH]c2ccccc12	2.6%	-0.2%
O=C(c1cc([N+](=O)[O-])ccc1N1CCN(S(=O)(=O)c2ccc(Cl)c(Cl)c2)CC1)N1CCOCC1	?	-2.2%
COc1cc(-c2nnc(NC(=O)CS(=O)(=O)c3ccc(F)cc3)o2)cc(OC)c1OC	5.5%	-0.5%
COCCCNC(=O)c1cc2c(-c3ccc(Cl)cc3)nn(C)c2s1	?	-5.6%
C=Cc1ccc(Cn2c(C(=O)O)c(CNCCc3ccco3)c3ccc(C)cc32)cc1	?	-26.7%
COc1ccccc1-c1noc(CCCC(=O)Nc2ccc(C(N)=O)cc2)n1	7.7%	-1.2%
COc1ccc(-c2cc(=O)oc3c(C)c(O)ccc23)cc1	7.31µM*	-16.5%
Cc1ccc(C(=O)NC(=O)CSc2nnc(C)s2)cc1	3.6%	-8.0%
CCC(C)(C)NC(=O)Cc1ccc(Cl)cc1	6.0%	-8.2%
Cc1c(CC(=O)N2CCN(C(=O)C3COc4ccccc4O3)CC2)c(=O)oc2cc(O)cc(O)c12 (stereo unspecified)	2.9%	-23.1%
CSCC[C@H](NC(=O)OC(C)(C)C)C(=O)N1CCC(C(=O)N[C@@H](C)C(=O)O)CC1	-10.0%	0.3%
CNC(=O)Cn1nc(-c2ccc(C)c(S(=O)(=O)N(C)C)c2)c2ccccc2c1=O	1.0%	-3.4%
O=C(NC1CCCC1)c1cccc(NC(=O)c2ccco2)c1	-22.2%	?
Cc1nc2cc(-c3ccccc3)nn2c(C)c1CCC(=O)N1CCN(c2ccc(F)cc2)CC1	23.1µM*	-3.1%
Cc1cc(C(=O)Nc2cccc(/C=C/C(=O)O)c2)c(C)o1	-4.1%	-5.2%
CCC1Oc2ccccc2N(CC(=O)NCCN2CCCC2)C1=O (stereo unspecified)	-5.7%	-7.4%
NC(=O)C1=C[C@H](c2ccc3c(c2)OCO3)C[C@H](OCc2ccc(CO)cc2)O1	-23.2%	-1.9%
O=C(NCCN1C(=O)S/C(=C\c2cccnc2)C1=O)C1CC(=O)N(Cc2ccco2)C1 (stereo unspecified)	0.1%	-7.1%
O=C(NC(C(=O)N1CCCC1C(=O)O)=C1CCCCC1)c1ccccc1 (stereo unspecified)	1.3%	-0.9%
CC1CCc2c(sc(NC(=O)CCCOc3ccc(C(C)(C)C)cc3)c2C(N)=O)C1 (stereo unspecified)	?	5.4%
CCS(=O)c1ccccc1C(=O)OCC(=O)Nc1cccc(S(=O)(=O)N2CCCCC2)c1 (stereo unspecified)	11.6µM*	1.1%
O=C(CN1CCN(c2ccc(O)cc2)CC1)N1CCc2ccccc21	0.9%	-6.1%
CC(C)(C)c1ccc(C(=O)O)c(C(=O)c2ccc(C(=O)O)cc2)c1	-16.1%	-3.8%
CC(C)(C)c1ccc(OC(=O)N2CCOCC2)cc1	?	-2.4%
FC(F)(F)c1cc(-c2ccccc2)nc2nc(N3CCOCC3)sc12	-21.5%	2.8%
N#CCCn1c(Cl)nc2ccccc21	4.5%	1.0%
COc1ccc(CNC(=O)C2CCCN2S(=O)(=O)c2ccc(F)cc2)cc1 (stereo unspecified)	5.4%	8.7%
COc1cc(NC(=O)COc2cccc3c2OC(C)(C)C3)cc(OC)c1OC	13µM*	0.3%
CCc1ccc(S(=O)(=O)Nc2c(C)nc3nc[nH]n3c2=O)cc1	15.6%	-7.8%
O=C(CN1C(=O)CSC1=O)Nc1ccccc1N1CCOCC1	1.0%	-4.7%
Fc1ccc2c(c1)/C(=N/Nc1ccccn1)CCS2	4.8%	-10.8%
CCOC(=O)c1cccc(NS(=O)(=O)c2cn(C)c(C)n2)c1	-13.1%	7.4%
O=C(CCSCc1ccccc1Cl)NCc1ccc(F)cc1Cl	?	-1.7%
CCOC(=O)N1CCN(c2ncc3c(n2)CC(c2ccc(OC)c(OC)c2)CC3=O)CC1 (stereo unspecified)	nt	-4.3%
Cc1ccc(C(=O)N(C)c2ccc(OCC(=O)N3c4ccc(C)cc4C4CN(C)CCC43)cc2)cc1 (stereo unspecified)	?	-9.2%
Cn1cnc2c1c(=O)n(Cc1ccccc1)c(=O)n2C	-2.8%	1.5%
Brc1ccccc1Cn1cnc2ccccc21	?	-0.9%
COc1ccc(C(=O)N2CCN(c3ccc(F)cc3)CC2)cc1S(=O)(=O)NC1CC1	-21.8%	-2.3%
O=C1OCCC1Sc1nnc(-c2cccnc2)n1-c1ccccc1F (stereo unspecified)	2.0%	-6.9%
CCOc1cc(/C=C/C(=O)OCC(=O)NCCN2C(=O)CSC2=O)ccc1OCC(C)C	?	-12.8%
O=C(N1CCOCC1)N1CCN(c2ccc(F)cc2)CC1	-1.8%	1.8%
CCOc1ccc(C2C(C(=O)c3ccco3)=C(O)C(=O)N2Cc2cccnc2)cc1OC (stereo unspecified)	-2.7%	-1.0%
COc1ccc(/C=C/C(=O)Nc2ccccc2C(=O)NCC(c2ccc(OC)cc2)N(C)C)cc1 (stereo unspecified)	18.4µM*	-2.6%
COc1cccc(C(=O)Nc2ccc(N3CCN(S(C)(=O)=O)CC3)cc2)c1	-22.7%	-0.3%
Cc1cc(C(=O)N/N=C/c2ccccn2)n[nH]1	-1.6%	-2.7%

# Profiles, quoted from the list:
# Profile of Cc1c(CC(=O)N2CCN(C(=O)C3COc4ccccc4O3)CC2)c(=O)oc2cc(O)cc(O)c12 (stereo unspecified) : TDP1 cell CPT: 2.9%; GCN5L2 inh: -23.1%
# Profile of CCS(=O)c1ccccc1C(=O)OCC(=O)Nc1cccc(S(=O)(=O)N2CCCCC2)c1 (stereo unspecified) : TDP1 cell CPT: 11.6µM*; GCN5L2 inh: 1.1%
